Screening results (PubChem BioAssay)
Biofilm kill mix: mixtures killing C. albicans biofilm | inhibition, % at 7.6 µM | 120,000 tested, 0.02% active | AID 1242 | C. albicans biofilm persisters + clotrimazole, fluorescence viability; primary screen in compound mixtures of four per well;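 active = inhibition above 30.3% in the primary screen of four-compound pools, then above 30% when the compound was retested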;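 also: compounds exposed to preformed 24 h biofilms for 48 h; the number belongs to the whole pool; some results filed as inactive read as strong as hits; inactives centre near 12; 0% = biofilm with clotrimazole alone and 100% = kill control; retested singly at about 60 µM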
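System: C. albicans CAF4-2 wild-type biofilms; Medium: RPMI/MOPS medium, pH 7.0; Reagent: Clotrimazole, 50 µg/mL; Times: biofilm formation 24 h, compound exposure 48 h, 37 °C; Detection: 2-h Alamar Blue fluorescence, 535/590 nm excitation/emission; Evaluation: percent inhibition of biofilm viability.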
The depositor's hits bear a star. These rows are one share of the data; the hit share may differ from the screen's.

structure,Biofilm kill mix
CCN1CCN(C(=O)Cc2c(C)n(C(=O)c3ccc(Cl)cc3)c3ccc(OC)cc23)CC1,14
CCCC(=O)NC(Oc1ccc(OC)cc1)C(Cl)(Cl)Cl (centres undefined),4
c1ccc2c(CN3CCCCCC3)c[nH]c2c1,15
COC(=O)[C@@H]1[C@@H](C(=O)OC)C2(c3ccccc3-c3ccccc32)N(c2ccc(Cl)cc2)N1C#N,-4
O=C(NCCN1CCOCC1)c1ccc(Cl)nc1Cl,27
Cc1ccccc1N1C(=O)NC(=O)/C(=C/c2ccc(N3CCOCC3)o2)C1=O,23
CC12CN3CC(C)(CN(C1)C3c1cccs1)C2=O (centres undefined),12
CC(C)N(Cc1ccco1)/N=C/c1c(O)n(Cc2ccccc2)c(=O)[nH]c1=O,1
C[N+]1(C)C2CCC1CC(OC(=O)c1ccccc1)C2 (centres undefined),9
CN(N)N=Nc1nc2c([nH]1)c(=O)n(C)c(=O)n2C,7
COc1ccc(OC)c([C@@H](O)[C@H](C)NC(C)(C)C)c1,-3
O=c1[nH]c(=O)n(Cc2ccccc2Cl)c(O)c1C=Nc1ccc(F)cc1,10
O=P(Nc1cccc(F)c1)(Oc1ccccc1F)Oc1ccccc1F,15
CCOC(=O)c1cc(C)sc1/N=C/C1C(=O)NC(=S)NC1=O,4
BrCC1C[n+]2c(SCc3ccccc3)nc3sc4c(c3c2O1)CCCC4 (centres undefined),12
C[C@@H]1O[C@@H](O[C@H]2C[C@@H](O)[C@]3(CO)[C@H]4[C@H](O)C[C@]5(C)[C@@H](C6=CC(=O)OC6)CC[C@]5(O)[C@@H]4CC[C@]3(O)C2)[C@H](O)[C@H](O)[C@H]1O,-3
CN1CCN(C(=O)OC2c3nccnc3C(=O)N2c2ccc(Cl)cn2)CC1 (centres undefined),16
O=C(N/N=C/c1c(O)n(Cc2ccc(F)cc2)c(=O)[nH]c1=O)c1ccccc1,18
CN1C(=O)C(=Cc2ccccc2OCc2ccc(C(=O)O)cc2)C(=O)N(C)C1=O,4
O=c1[nH]c(=S)[nH]c(O)c1/C=N/N1CCOCC1,6

(more compounds)
structure,Biofilm kill mix
CCc1ccc(-c2nn(Cc3ccccc3)cc2C=O)cc1,11
COP(=O)(C#Cc1ccccc1)C(O)c1ccc(Br)cc1 (centres undefined),27
CN1C(=O)c2ccccc2NC(=O)[C@]12O[C@@H]2c1ccccc1,22
COc1cccc(C(=O)C2CCCN(Cc3ccc4nsnc4c3)C2)c1 (centres undefined),-2
CCOC(=O)c1ccc(N=C(c2ccccc2)c2c(O)n(C)c(=O)n(C)c2=O)cc1,21
CCCCCCn1c(=O)c(C(=O)Nc2nc(CC(=O)OCC)cs2)c(O)c2ccccc21,13
COc1ccc(NC(=O)N2CCC3(CC2)OCCO3)cc1OC,4
Cc1ccc(N2C(=O)NC(=O)/C(=C/c3ccoc3)C2=O)cc1,19
CCN(CC)c1ccc(CNCCc2ccc(F)cc2)cc1,23
CCn1ccnc1CN1CCCC(C(=O)c2ccc(SC)cc2)C1 (centres undefined),10
C=CCn1c(O)c(C(C)=NCC2CCCO2)c(=O)[nH]c1=O (centres undefined),18
CCC[N+]12CCC(CC1)C(=C(c1ccccc1)c1ccccc1)C2,28
Cc1cccc(OCC(=O)N2CCN(Cc3ccc4c(c3)OCO4)CC2)c1,3
O=c1cccc2n1CC1CC2CN(c2nc(N3CCCCC3)nc(N3CCCCC3)n2)C1 (centres undefined),4
O=C1NC(c2cccnc2)Nc2sc3c(c21)CCCC3 (centres undefined),10
Cc1ccc(-n2c(O)c(C=NCCN(C)C)c(=O)[nH]c2=O)cc1,21
N#CCN1CCN(c2ccc(C(F)(F)F)cc2)CC1,15
CCCCn1c(O)c(/C=N/NC(=O)c2ccncc2)c(=O)[nH]c1=S,5
O=C1NC(=O)N(CCC2=CCCCC2)C(=O)/C1=C\c1cccs1,-2
CN1CCN(c2nc3ccccn3c(=O)c2C=C2C(=O)N(C)C(=O)N(C)C2=O)CC1,5

(further entries)
structure,Biofilm kill mix
CN(C)C(=O)Oc1c(Cl)cc(Cl)c2cccnc12,1
N#Cc1ccc(/C=C/C(=O)O)cc1,22
Cc1nn(Cc2ccccc2)c(C)c1C(=O)NC1CCCc2ccccc21 (centres undefined),26
CN(C)C(CNC(=O)Cc1c(Cl)cccc1Cl)c1ccccc1 (centres undefined),-3
CCc1ccc(OCC(=O)N2CCN(Cc3ccc4c(c3)OCO4)CC2)cc1,6
COc1ccc(C)cc1NC1=NCCCS1,11
O=C(NCCCn1ccnc1)C(Cl)(Cl)Cl,12
C[N+](C)(C)c1ccccc1,-1
CCCc1nnc(NC(=O)CCC(=O)N2CCC3(CC2)OCCO3)s1,11
COc1ccc(/C=C2/C(=O)NC(=O)N(Cc3ccco3)C2=O)cc1,6
CCCCC1C(=O)NC(=S)NC1=O,20
Cc1cccc(OCCn2cccc2/C=C2/C(=O)NC(=O)N(Cc3ccco3)C2=O)c1,10
NCCCCCC(=O)OC1N=C(c2ccccc2Cl)c2cc(Br)ccc2NC1=O (centres undefined),9
CC12CN3CN(C1)CC(c1ccccc1)(C3)C2=O,14
CN(C)C(=O)Oc1cccc(NC(=O)c2ccccc2C(F)(F)F)c1,18
C[C@@H]1C(=O)O[C@@H]2[C@H](O)C34[C@@H]5OC(=O)C3(O[C@H]3OC(=O)[C@H](O)C34[C@H](C(C)(C)C)[C@H]5O)[C@@]12O (some centres undefined),6
O=c1[nH]c2ccccc2o1,7
N#CCCn1cc(C(=O)Nc2ccc([N+](=O)[O-])cc2)c(-c2ccc3c(c2)OCCO3)n1,15
CN1C(=O)NC(=O)/C(=C/c2ccc([N+](=O)[O-])o2)C1=O,-1
CCN1C(=O)C(=C/C=C/c2ccco2)C(=O)N(CC)C1=S,9

(listing goes on)
structure,Biofilm kill mix
CN(C)C(=O)Oc1noc2cc(Cl)ccc12,16
C=C1C(=O)O[C@@H]2C[C@@H](C)[C@@H]3C=CC(=O)[C@@]3(C)[C@@H](O)[C@H]12,17
Cc1ncc(CN2CCCC(C(=O)c3ccc(C(C)(C)C)cc3)C2)s1 (centres undefined),11
Cc1ccc(CN2CCN(Cc3ccccc3F)CC2)cc1,7
Cc1cc(N2CCCCC2)ccc1C=C1C(=O)N(C)C(=S)N(C)C1=O,-2
Cc1nonc1OCCNc1ccc([N+](=O)[O-])c2cccnc12,8
Cc1cc(OC(=O)N(C)C)nc(SCc2c(Cl)cccc2Cl)n1,15
O=C1NC(=O)N(Cc2ccccc2)C(=O)/C1=C/c1cnn(-c2ccccc2)c1,21
O=C(N/N=C/c1c(O)n(-c2ccccc2)c(=S)[nH]c1=O)c1ccccc1,30
O=C(O)c1[nH]c(=O)[nH]c(=O)c1F,10
C/C(=N\N1CCN(C)CC1)c1c(O)[nH]c(=O)[nH]c1=O,12
COc1ccc(N2C(=O)NC(=O)/C(=C/c3ccc(N4CCOCC4)cc3)C2=O)cc1,8
CSc1ccccc1C(=O)C1CCCN(Cc2ccn[nH]2)C1 (centres undefined),4
CCOCCCNC(=O)C1c2cc(OC)c(OC)cc2C(=O)N2CCCCC12 (centres undefined),5
CCn1cc(C(=O)N2CCCCC2)c2ccccc21,18
CCNC(=O)NC(=O)C(C)OC(=O)c1c(C)nn(Cc2ccccc2)c1Cl (centres undefined),13
Cn1c(=O)c2c(nc(N/N=C/c3c(O)n(-c4ccccc4)c(=S)[nH]c3=O)n2C)n(C)c1=O,13
CCN1C(=O)CC(c2cccnc2)=Nc2ccccc21,5
CC(=O)c1c(O)n(-c2cccc(Cl)c2)c(=O)[nH]c1=O (tested in a mixture with another compound),25
CCCCC(CC)COCCCN=Cc1c(O)[nH]c(=S)[nH]c1=O (centres undefined),21

Already shown: five of the compounds above.
structure,Biofilm kill mix
CN(C)C(=O)Oc1noc2cc(Cl)ccc12,16
C=C1C(=O)O[C@@H]2C[C@@H](C)[C@@H]3C=CC(=O)[C@@]3(C)[C@@H](O)[C@H]12,17
Cc1ncc(CN2CCCC(C(=O)c3ccc(C(C)(C)C)cc3)C2)s1 (centres undefined),11
Cc1ccc(CN2CCN(Cc3ccccc3F)CC2)cc1,7
Cc1cc(N2CCCCC2)ccc1C=C1C(=O)N(C)C(=S)N(C)C1=O,-2

Next structures:
mol | Biofilm kill mix
COc1cc2c(cc1OC)C13CCN4CC5=CCOC6CC(=O)N2C1C6C5CC43 (centres undefined) (tested in a mixture with another compound) | 19
Cc1cc(/C=C2/C(=O)NC(=O)N(Cc3ccco3)C2=O)c(C)n1-c1ccccc1O | 14
O=c1c2ccccc2nc(-c2ccc(Cl)cc2Cl)n1-c1nccs1 | 18
CCCc1nnc(NC(=O)CCC(=O)N2CCN(CCOC(c3ccccc3)c3ccccc3)CC2)s1 | 12
CNC(=O)OCCc1nccn1C | 7
Cn1c(O)c(C(=Nc2ccccc2)SCc2ccc(Cl)cc2)c(=O)n(C)c1=O | 14
COc1cc(C(c2c(O)c3ccccc3oc2=O)c2c(C)n(C)n(-c3ccccc3)c2=O)ccc1O (centres undefined) | 7
COc1cccc(/C=C2\N=C(c3cncc(Br)c3)OC2=O)c1 | 10

Grouped by structure: the entries above with a tert-butyl group.
mol | Biofilm kill mix
COc1ccc(OC)c([C@@H](O)[C@H](C)NC(C)(C)C)c1 | -3
C[C@@H]1C(=O)O[C@@H]2[C@H](O)C34[C@@H]5OC(=O)C3(O[C@H]3OC(=O)[C@H](O)C34[C@H](C(C)(C)C)[C@H]5O)[C@@]12O (some centres undefined) | 6
Cc1ncc(CN2CCCC(C(=O)c3ccc(C(C)(C)C)cc3)C2)s1 (centres undefined) | 11

Next section.
mol | Biofilm kill mix
CCCCn1c(=O)c(C(=O)Nc2ccsc2C(=O)OC)c(O)c2ccccc21 | 11
O=C1NC(=O)C(=Cc2ccccc2OCCOc2ccc([N+](=O)[O-])cc2)C(=O)N1 | 25
CCn1c(P(C)(=O)O)nc2ccccc21 | 21
CCOc1ccccc1NC(=O)N1CCC2(CC1)OCCO2 | 13
Fc1c(F)c(F)c(N2CCNCC2)c(F)c1F | 15
O=C(N/N=C/c1c(O)n(Cc2ccccc2)c(=O)[nH]c1=O)c1ccccc1O | 20
CCN(CC)c1ccc(CC2C(=O)N(C)C(=O)N(C)C2=O)cc1 | 7
CCCC1(CCC)C(=O)NC(=Nc2ccc(C)cc2)NC1=O | 6

Looked up by compound from the entries so far (3):
mol | Biofilm kill mix
CCCCn1c(=O)c(C(=O)Nc2ccsc2C(=O)OC)c(O)c2ccccc21 | 11
Fc1c(F)c(F)c(N2CCNCC2)c(F)c1F | 15
CCN(CC)c1ccc(CC2C(=O)N(C)C(=O)N(C)C2=O)cc1 | 7

Following part
mol | Biofilm kill mix
CCC(C)N1C(=O)/C(=C\c2cc3c4c(c2)CCCN4CCC3)C(=O)NC1=S (centres undefined) | 18
Cc1cc(C(=O)C[N+]23CCN(CC2)CC3)c(C)n1-c1ccc(Br)cc1 | 16
Cc1cccc(-n2c(O)c(/C=N/NC(=O)c3ccncc3)c(=O)[nH]c2=O)c1 | 8
CC(C)(C)c1ccc(OC(=O)N2CCCCC2)cc1 | 8
COP(=O)(OC)C(Nc1ccccn1)c1ccccc1 (centres undefined) | 20
CC(NC(=O)Cc1cccc2ccccc12)C(=O)N1CCC(=O)CC1 (centres undefined) | 10
O=C1NC(=S)NC(=O)C1C1CCCCC1 | 8
C=COCCn1c(C)c(C(C)=O)c2cc(O)ccc21 | 16

Other compounds follow:
mol | Biofilm kill mix
O=C(CN1CCCCC1)c1ccc(F)cc1 | 25
CC[N+]12CCC(CC1)C(C(O)(c1ccccc1)c1ccccc1)C2 (centres undefined) | 18
COc1ccc(N2C(=O)NC(=O)/C(=C/c3cccc(OC(=O)c4cccs4)c3)C2=O)cc1Cl | 10
COc1ccc(C(=O)C2CCCN(Cc3cccc(C)n3)C2)c(OC)c1 (centres undefined) | 20
c1ccc2sc(NC3=NCCN3)nc2c1 | 6
Cc1ccc(-n2c(C)cc(/C=C3/C(=O)NC(=O)N(Cc4ccco4)C3=O)c2C)cc1 | 6
O=C(COc1ccccc1)N1CCN(CCN2C(=O)c3cccc4cccc(c34)C2=O)CC1 | 20
N/C(=N\[N+](=O)[O-])NCCCC(NC(=O)CNC(=O)c1ccccc1)C(=O)O (centres undefined) | 15

Carrying on.
mol | Biofilm kill mix
CCOC(=O)c1sc(N=Nc2c(O)[nH]c(=O)[nH]c2=O)c(C(=O)OCC)c1C | 22
Cc1ccc(N/N=C/c2c(O)n(-c3ccccc3)c(=O)[nH]c2=O)cc1 | 13
O=C(c1ccc(Cl)cc1)C1CCCN(Cc2cccc3cccnc23)C1 (centres undefined) | 6
CCN(CC)P(=O)(Oc1ccccc1)Oc1ccccc1 | -4
CC(C)COP(=O)(OCC(C)C)C(O)c1cccnc1 (centres undefined) | 12
CN1C[C@H](CO)C=C2c3cccc4[nH]cc(c34)C[C@H]21 | 11
C=C1C(=O)O[C@@H]2C[C@@H](C)[C@@H]3C4OC4C(=O)[C@@]3(C)[C@@H](O)[C@H]12 (some centres undefined) | 14
Cn1cccc1/C=C1\C(=O)NC(=O)N(Cc2ccccc2)C1=O | 10

Next compounds:
mol | Biofilm kill mix
CC(=O)O[C@@H]1[C@H]2CC[C@@H]3[C@]1(C[C@@H](OC(C)=O)[C@@]1(O)C([C@@H]4O[C@@H]4C1(C)C)[C@]3(C)O)C[C@@]2(C)O (some centres undefined) | 18
O=C1NC(=O)C(=Cc2coc3ccccc3c2=O)C(=O)N1 | 29
COc1ccc(C2(C#N)CCN(C)CC2)cc1 | 8
CC(C)c1ccc(N=Nc2c(O)[nH]c(=O)[nH]c2=O)cc1 | 30
C(#CCN1CCCCC1)COCc1ccccc1 | 1
Cn1cccc1/C=C1\C(=O)NC(=O)N(Cc2ccco2)C1=O | 15
CCOC(=O)c1c(NC(NC(=O)CF)C(Cl)(Cl)Cl)sc2c1CCCC2 (centres undefined) | 12
CN1C(=O)C(=Cc2ccc(N(C)C)c([N+](=O)[O-])c2)C(=O)N(C)C1=O | -1
